Compound activity (PubChem BioAssay)
LANA-H2B inh – blocks KSHV LANA binding to histone H2A/H2B; Q9QR71; AID 2629; 320,000 tested, 0.6% active; cell-free LANA-H2A/H2B peptide, fluorescence polarization; inhibition, % (concentration not given with the values); in the data active = inhibition mostly above about 10%, no sharp cut-off; inactive = mostly below about 6.7%;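 also: stock transfer was 7.5 nL into about 10 µL; 0% = median of vehicle wells and 100% = median of positive control wells; one replicate is shown; the record names a cut of 25% in any replicate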
HNF4A DNA FP – change in binding of human HNF4 alpha to DNA. P41235. HNF4a-FITC DNA binding, fluorescence polarization, 1 h. activity change, % at 10 µM. 360,000 tested, 0.3% active; in the data active = activity change above about 30%, passing the limit was not always enough;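 also: controls were the assay level and a saturating level of protein; the project sought stronger binding though the title names inhibitors; some compounds called inactive have numbers as strong as hits; positive values seem to mean higher polarization but the record does not say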
Target sequence (P41235 whole entry, looked up): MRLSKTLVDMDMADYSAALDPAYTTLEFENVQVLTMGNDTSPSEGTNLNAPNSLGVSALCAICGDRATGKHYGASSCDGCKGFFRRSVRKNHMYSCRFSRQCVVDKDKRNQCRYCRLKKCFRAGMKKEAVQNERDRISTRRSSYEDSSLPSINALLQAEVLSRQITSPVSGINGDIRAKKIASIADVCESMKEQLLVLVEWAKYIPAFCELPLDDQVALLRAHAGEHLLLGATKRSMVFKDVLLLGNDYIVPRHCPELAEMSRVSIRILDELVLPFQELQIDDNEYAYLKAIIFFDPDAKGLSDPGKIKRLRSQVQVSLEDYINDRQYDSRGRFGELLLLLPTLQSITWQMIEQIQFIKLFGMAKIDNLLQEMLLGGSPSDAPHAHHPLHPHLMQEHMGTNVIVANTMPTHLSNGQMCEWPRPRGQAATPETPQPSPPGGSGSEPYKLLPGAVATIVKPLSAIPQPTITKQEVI
Vif TR-FRET – HIV-1 Vif–A3G interaction blockers – biochemical, TR-FRET, GST-Vif 1-94, biotin-A3G peptide, dose response retest, primary screen (AID 1117319); TR-FRET GST-Vif / biotin-A3G peptide binding; higher % means a stronger effect; test concentration not given here; strong numbers were not always called active; inhibition, %; hits with a dose series show IC50 in µM; 260,000 tested, 0.57% active;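 active = above the screen mean plus three standard deviations and confirmed in dose response; inconclusive = results disagree or hit not tested in dose response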;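 also: Vif residues 1-94 fused to GST binding biotinylated APOBEC3G peptide 110-148; 0% = full assay without inhibitor and 100% = GST in place of GST-Vif; retest series ran down from 100 µM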
Ecoli growth – blocks Escherichia coli growth | AID 1053175 | OD600 absorbance (no concentration beside the values) | OD600, 23 h; stronger effect = lower value | 330,000 tested, 0.21% active;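 active = OD600 absorbance below the run mean of sample wells minus 3.6 SD, in any replicate, cut at about 0.56 in these data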;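 also: stock transfer was 300 nL into about 60 µL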
Bfl-1 A1 inh – inhibitors of the anti-apoptotic protein A1, read as caspase activation; MEF A1-2A-BIM cells, Caspase-Glo 3/7 luminescence, 3 h; percent of clofoctol response, vehicle zero; caspase activation, % (concentration not given with the values); 330,000 tested, 0.066% active; AID 2462;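 active = over half of replicate activation scores above 10%, or exactly half above 10 with the replicate mean above 10; inconclusive = replicate mean below 10 yet half the replicates above 10; inactive = over half of replicates below 10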;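 also: wells of about 30 µL received 50 nL stock; many hits fall short of the cut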
B2AR ag – agonists of human beta-2 adrenergic receptor inducing internalization; 340,000 tested, 0.43% active; Am2.2-beta2AR cells, FAP receptor internalization, flow cytometry; reference of the scale not given here; response, % (concentration not given with the values);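 active = response above a set limit, near 3 SD of response in nonfluorescent compounds, cut at about 42% in these data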;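 also: stock transfer was 100 nL into about 11 µL; a reference agonist was the positive control; negative values mostly stem from fluorescent compounds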
UCH37 inh – human UCH37 deubiquitinating enzyme inhibition; 330,000 tested, 0.33% active; AID 588478; Q9Y5K5; purified proteasome/UCH37, Ub-AMC cleavage fluorescence; inhibition, % (concentration not given with the values);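 active = mean of two replicates above 20%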;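 also: 0% = compound-free wells with enzyme and 100% = wells lacking proteasome; stock transfer was 100 nL into about 20 µL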
Target sequence (Q9Y5K5 whole entry, looked up): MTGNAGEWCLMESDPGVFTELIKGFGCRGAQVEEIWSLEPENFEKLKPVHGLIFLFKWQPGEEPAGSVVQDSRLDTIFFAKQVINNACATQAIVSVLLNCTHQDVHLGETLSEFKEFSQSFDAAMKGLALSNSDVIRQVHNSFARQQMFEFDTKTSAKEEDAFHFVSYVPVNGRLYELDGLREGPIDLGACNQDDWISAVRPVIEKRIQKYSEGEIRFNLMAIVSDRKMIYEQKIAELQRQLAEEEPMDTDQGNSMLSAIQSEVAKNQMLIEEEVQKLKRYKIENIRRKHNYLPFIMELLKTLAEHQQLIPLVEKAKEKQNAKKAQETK
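Material: Human UCH37 enzyme supplied as purified proteasome complex | Schedule: 30 min preincubation with enzyme, 25 min cleavage at room temperature | Detection: AMC fluorescence 355/460 nm | Measure: % inhibition of Ub-AMC cleavage fluorescence | Controls: Wells without proteasome as full block, compound-free enzyme plus substrate as uninhibited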
* hit, by the source's call; & = joins results of further samples.

COc1ccc(N2CCCC2)c(NC(=O)COc2ccccc2Cl)c1 was read as LANA-H2B inh 5.3, HNF4A DNA FP 1.0, Ecoli growth 0.71, Bfl-1 A1 inh 0.2, B2AR ag 3 and UCH37 inh 0.7.
`Cc1ccc(C)c(NC(=S)c2ccccn2)c1` gave LANA-H2B inh 1.9, HNF4A DNA FP 2.3, Vif TR-FRET -4%, Ecoli growth 0.68, Bfl-1 A1 inh -0.8, B2AR ag -2 and UCH37 inh 0.7.
`CC12C(=O)N(c3nccs3)C(=O)C1(C)C1CCC2O1` (stereo unspecified) gave HNF4A DNA FP -2.2, Ecoli growth 0.68 and UCH37 inh 1.6.
`COc1ccc(C(=O)Nc2ccc(S(=O)(=O)N3CCOCC3)cc2)cc1OC` gave LANA-H2B inh -13, HNF4A DNA FP -1.5, Vif TR-FRET -4%, Ecoli growth 0.71, Bfl-1 A1 inh 0.3, B2AR ag -5 and UCH37 inh 1.6.
For CC(=O)c1cccc(CN2CCC(n3nccc3NC(=O)CCc3ccccc3)CC2)c1 the results were LANA-H2B inh -5.7, HNF4A DNA FP -2.3, Vif TR-FRET 19%, Ecoli growth 0.7, Bfl-1 A1 inh -0.2, B2AR ag -4 and UCH37 inh 2.3.
Cn1cc(C=C2C(=O)CC(C)(C)CC2=O)c2ccccc21 was read as LANA-H2B inh -5.4, HNF4A DNA FP 1.1, Vif TR-FRET 26%, Ecoli growth 0.67, Bfl-1 A1 inh -1.1, B2AR ag -8 and UCH37 inh 1.1.
O=C(Nc1ccon1)C12CC3CC(C1)CC(n1cnc([N+](=O)[O-])n1)(C3)C2 was read as LANA-H2B inh -0.2, HNF4A DNA FP 0.7, Ecoli growth 0.7, Bfl-1 A1 inh -0.1, B2AR ag -4 and UCH37 inh 0.5.
`Cc1ccccc1Nc1nc(N)nc(COC(=O)CC2CC3CCC2C3)n1` (stereo unspecified) gave LANA-H2B inh -0.2, HNF4A DNA FP 0.5, Vif TR-FRET -3%, Ecoli growth 0.7, Bfl-1 A1 inh 0.1, B2AR ag 2 and UCH37 inh 1.7.
For C=CCNc1nc(N)c(C(=C(C#N)C#N)c2ccccc2)s1 the results were LANA-H2B inh -2.5, HNF4A DNA FP 5.1, Vif TR-FRET inconclusive, Ecoli growth 0.72, Bfl-1 A1 inh 0.8, B2AR ag 0 and UCH37 inh -459.
`Cc1ccc(C23CC4CC(CC(C(=O)OCC(=O)NC5CCS(=O)(=O)C5)(C4)C2)C3)cc1` (stereo unspecified) gave LANA-H2B inh -1.1, HNF4A DNA FP 4.0, Ecoli growth 0.67, Bfl-1 A1 inh 0.3, B2AR ag 3 and UCH37 inh 3.3.
For Cc1cc(OCC(=O)NC2CC(C)(C)NC(C)(C)C2)c2c(C)c(C)c(=O)oc2c1 the results were LANA-H2B inh 2.2, HNF4A DNA FP 0.5, Ecoli growth 0.63, Bfl-1 A1 inh -0.1, B2AR ag 7 and UCH37 inh -76.
COCCOC(=O)C1=C(C)Nc2ncnn2C1c1ccco1 (stereo unspecified) was read as LANA-H2B inh -1.6, HNF4A DNA FP 0.1, Vif TR-FRET -1%, Ecoli growth 0.65, Bfl-1 A1 inh 0.1, B2AR ag 15 and UCH37 inh -0.6.
`COc1ccc(C(CNC(=O)c2oc3ccc(C)cc3c2C)N2CCCCC2)cc1` (stereo unspecified) gave HNF4A DNA FP 4.1, Vif TR-FRET 0%, Ecoli growth 0.64, B2AR ag 11 and UCH37 inh 0.1.
Cc1cccc(NC(=O)c2cccc(S(=O)(=O)N3CCc4ccccc4C3)c2)n1 was read as LANA-H2B inh 8.0, HNF4A DNA FP -7.5, Vif TR-FRET 0%, Ecoli growth 0.65, Bfl-1 A1 inh 0.4, B2AR ag -8 and UCH37 inh 2.9.
For Cc1cc2nc(-c3ccncc3)cc(C(F)(F)F)n2n1 the results were LANA-H2B inh -1.3, HNF4A DNA FP -1.8, Vif TR-FRET 15%, Bfl-1 A1 inh -0.6 and B2AR ag -2.
For CCO[C@@H]1OC(C(=O)N2CCN(Cc3ccc4c(c3)OCO4)CC2)=C[C@H](c2cn(C(C)=O)c3ccccc23)[C@H]1CCCO the results were LANA-H2B inh 1.0, HNF4A DNA FP -3.3, Vif TR-FRET -10%, Bfl-1 A1 inh 0.5, B2AR ag -2 and UCH37 inh -1.0.
For COCCn1c(=NC(=O)/C=C/c2ccccc2Cl)sc2cc(NC(C)=O)ccc21 the results were LANA-H2B inh -2.6, HNF4A DNA FP 3.1, Ecoli growth 0.67, Bfl-1 A1 inh -0.3, B2AR ag -7 and UCH37 inh -32.
O=c1c2ccccc2nc(CSc2ncnc3nc[nH]c23)n1-c1cccc(C(F)(F)F)c1 was read as LANA-H2B inh 9.7, HNF4A DNA FP -0.7, Vif TR-FRET 2%, Ecoli growth 0.75, Bfl-1 A1 inh -0.9, B2AR ag -12 and UCH37 inh -1.2.
COc1cc(Cl)c(S(=O)(=O)N2CCOCC2)cc1Cl was read as LANA-H2B inh -0.4, HNF4A DNA FP 0.1, Vif TR-FRET 6%, Ecoli growth 0.7, Bfl-1 A1 inh 0.6, B2AR ag 2 and UCH37 inh 3.5.
For FC(F)(F)c1ccccc1CN1CCC(Cc2ccccc2)CC1 the results were LANA-H2B inh 0.4, HNF4A DNA FP 0.2, Ecoli growth 0.66, Bfl-1 A1 inh -0.4, B2AR ag 3 and UCH37 inh -1.0.
`COc1cccc(CNC(=O)CCC2CCCN(C(=O)c3ccoc3)C2)c1` (stereo unspecified) gave LANA-H2B inh -5.0, HNF4A DNA FP -0.7, Ecoli growth 0.74, Bfl-1 A1 inh 1.3, B2AR ag 4 and UCH37 inh 1.8.
`COCc1cc(C)nc2sc(C(=O)N3CCCCC3)c(N)c12` gave LANA-H2B inh -5.8, HNF4A DNA FP 0.7, Vif TR-FRET 2%, Ecoli growth 0.67, Bfl-1 A1 inh 0.3, B2AR ag 0 and UCH37 inh 3.1.
`CCC(C)N1CCN(C(=O)C2CCN(S(=O)(=O)c3c(C)noc3/C=C/c3ccco3)CC2)CC1` (stereo unspecified) gave LANA-H2B inh -0.5, HNF4A DNA FP 1.1, Ecoli growth 0.68, Bfl-1 A1 inh -2.5, B2AR ag -2 and UCH37 inh 8.3.
CCOc1ccccc1NC(=S)NC(=O)C1CC1 was read as LANA-H2B inh -1.7, HNF4A DNA FP 2.2, Vif TR-FRET -2%, Bfl-1 A1 inh 0.5 and B2AR ag 1.
For COc1ccc(OC)c(S(=O)(=O)N2CCCC(C(=O)NCc3ccncc3)C2)c1 (stereo unspecified) the results were LANA-H2B inh 0.1, HNF4A DNA FP 2.2, Ecoli growth 0.66, Bfl-1 A1 inh -0.6, B2AR ag -6 and UCH37 inh 4.1.
Screening CCOC(=O)C1(CC2CCCCO2)CCN(Cc2cn[nH]c2-c2cccc(F)c2)CC1 (stereo unspecified) returned LANA-H2B inh -1.8, HNF4A DNA FP 1.8, Vif TR-FRET 4%, Ecoli growth 0.69, Bfl-1 A1 inh 0.4, B2AR ag -3 and UCH37 inh 1.7.
For O=C(CCCSc1nc2ccccc2[nH]1)NCc1ccccc1F the results were LANA-H2B inh 9.4, HNF4A DNA FP -2.8, Vif TR-FRET 7%, Ecoli growth 0.66, Bfl-1 A1 inh 0.2, B2AR ag -9 and UCH37 inh 4.6.
COc1ccc(C(=O)Nc2ccccc2C(=O)NCC2CCCO2)cc1 (stereo unspecified) was read as LANA-H2B inh 2.1, HNF4A DNA FP 0.1, Vif TR-FRET -1%, Ecoli growth 0.68, Bfl-1 A1 inh 0.6, B2AR ag -1 and UCH37 inh 0.2.
For Cc1ccc(S(=O)(=O)N2CCCN(C(=O)CNC(=O)c3cccc(C)c3)CC2)cc1 the results were LANA-H2B inh 8.5, HNF4A DNA FP 1.1, Vif TR-FRET 7%, Ecoli growth 0.71, Bfl-1 A1 inh -0.1, B2AR ag -6 and UCH37 inh 6.0.
For CCn1c(SCC(=O)Nc2ccc(F)cc2)nnc1C1CC1 the results were LANA-H2B inh 7.8, HNF4A DNA FP 2.5, Ecoli growth 0.64, Bfl-1 A1 inh 0.8, B2AR ag 5 and UCH37 inh 2.5.
For Cc1cc(C)c2nc(-c3ccccn3)cc(C(=O)N3CCCC3)c2c1 the results were LANA-H2B inh -3.3, HNF4A DNA FP -8.8, Ecoli growth 0.73, Bfl-1 A1 inh -0.5, B2AR ag 6 and UCH37 inh -136.
O=C(Nc1ncnc2sc3c(c12)CCCCC3)c1ccccc1 was read as LANA-H2B inh 0.6, HNF4A DNA FP 0.3, Vif TR-FRET -8%, Ecoli growth 0.7, Bfl-1 A1 inh -0.5, B2AR ag -6 and UCH37 inh -9.7.
For COc1ccccc1Nc1nnc(SCC(=O)N2CC(=O)Nc3ccccc32)s1 the results were LANA-H2B inh 0.0, HNF4A DNA FP -2.3, Vif TR-FRET 24%, Ecoli growth 0.68, Bfl-1 A1 inh -0.1, B2AR ag -11 and UCH37 inh 2.3.
Screening COc1ccc(-n2nc(C(=O)NCC(=O)N3CCN(c4ccccn4)CC3)c3ccccc3c2=O)cc1OC returned LANA-H2B inh -1.6, HNF4A DNA FP -9.8, Vif TR-FRET 8%, Ecoli growth 0.73, Bfl-1 A1 inh -0.3, B2AR ag 11 and UCH37 inh 1.2.
`Cc1cc(-c2ccc(C)c(S(=O)(=O)NCCN3CCC(C)CC3)c2)on1` gave LANA-H2B inh -1.1, HNF4A DNA FP -11, Ecoli growth 0.69, Bfl-1 A1 inh -0.6, B2AR ag -14 and UCH37 inh 3.9.
Cn1c(-c2ccco2)nc2cc3ccccc3cc21 was read as LANA-H2B inh 1.3, HNF4A DNA FP 7.5, Vif TR-FRET -1%, Ecoli growth 0.67, Bfl-1 A1 inh -6.2, B2AR ag 12 and UCH37 inh inactive.
Screening COc1ccc2cc(CCOC3CCCCO3)ncc2c1 (stereo unspecified) returned LANA-H2B inh 0.1, HNF4A DNA FP 1.3, Ecoli growth 0.81, Bfl-1 A1 inh -2.0, B2AR ag -7 and UCH37 inh 2.1.
`COc1ccc(NC(=O)CSc2ncn[nH]2)c([N+](=O)[O-])c1` gave LANA-H2B inh -2.5, HNF4A DNA FP -0.5, Vif TR-FRET 0%, Ecoli growth 0.65, Bfl-1 A1 inh -0.2, B2AR ag 1 and UCH37 inh 1.0.
Screening Cc1cc(C)n2nc(-c3ccccc3)cc2n1 returned LANA-H2B inh 4.7, HNF4A DNA FP -1.4, Vif TR-FRET -12%, Ecoli growth 0.68, Bfl-1 A1 inh 0.7, B2AR ag -4 and UCH37 inh -15.
For CC(=O)O[C@H]1C[C@@]2(C)[C@@H](C[C@@H](O)[C@H]3[C@@]4(C)CC[C@@H](O)[C@@H](C)[C@@H]4CC[C@@]32C)/C1=C(\CCC=C(C)C)C(=O)O the results were LANA-H2B inh -5.0&2.2, HNF4A DNA FP 0.0&2.6, Bfl-1 A1 inh 0.5&1.3, B2AR ag 1&7 and UCH37 inh 0.5&1.0.
Screening CCN1C(=O)c2ccccc2S(=O)c2ccc(C(=O)NCc3ccccn3)cc21 (stereo unspecified) returned LANA-H2B inh 0.8, HNF4A DNA FP -0.6, Vif TR-FRET 3%, Ecoli growth 0.76, Bfl-1 A1 inh -0.6, B2AR ag -11 and UCH37 inh 1.3.
